Rce1 inhib: yeast Ras-converting enzyme inhibition; Q03530; yeast membranes, quenched prenylated peptide cleavage fluorescence; calls only; 290,000 tested, 0.27% active; AID 2563;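 active means fall in fluorescence gain of 50% or more versus controls, with final raw signal at or below 3038400; inconclusive means same 50% fall but final raw signal above 3038400; inactive means fall in fluorescence gain under 50%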;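 further: plate controls were neutral control wells for no effect and wells lacking membranes for full effect; tested at 10 µM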
Target sequence (Q03530 whole entry, looked up): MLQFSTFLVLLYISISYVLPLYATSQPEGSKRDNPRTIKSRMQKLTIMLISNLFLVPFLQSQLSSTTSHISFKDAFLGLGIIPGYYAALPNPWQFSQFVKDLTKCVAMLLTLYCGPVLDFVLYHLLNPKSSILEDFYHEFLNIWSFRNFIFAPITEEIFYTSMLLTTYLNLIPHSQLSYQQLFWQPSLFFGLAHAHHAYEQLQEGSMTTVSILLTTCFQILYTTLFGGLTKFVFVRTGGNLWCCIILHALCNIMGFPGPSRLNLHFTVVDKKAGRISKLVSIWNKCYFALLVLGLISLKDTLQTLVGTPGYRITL
HIV Env fusion: blocks HIV Env-driven cell-cell fusion. 360,000 tested, 1.1% active. HeLa-JRFL Env/CEM21 cell fusion, luciferase. inhibition, % at 12.3 µM;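 active means mean replicate inhibition score of at least 50 and every replicate individually at or above 50; inconclusive means only one of the two criteria met; inactive means mean below 50 and not all replicates reaching 50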;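 further: 0% = plate neutral controls and 100% = maraviroc near 300 nM; one replicate is shown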
MT1-MMP act inh: inhibitors of human MT1-MMP activation; AID 651647; 360,000 tested, 0.061% active; GFP/RFP ratio change, % at 20 µM; HT1080 RFP-PRO-GFP cells, GFP/RFP ratio fluorescence, overnight; percent of plate control window, DMSO zero;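 active means GFP/RFP ratio change of at least 30% with cell ATP level not reduced by more than half and red fluorescence within 50% of control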; further: strong numbers were not always called active
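Compound: 20 µM single dose, 1% DMSO / System: HT1080 RFP-PRO-GFP cells / Controls: DMSO and RFP-L50D-GFP cell wells / Read-out basis: GFP/RFP fluorescence ratio / Schedule: overnight compound exposure at 37 °C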
CSC inhib: blocks cancer stem cells; inhibition, % at 7.5 µM; 300,000 tested, 1.1% active; cancer stem cell-like cells viability, luminescence;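 active means mean at 75% or more and at least half the replicates too; inconclusive means mean and replicates disagree; tested in HMLE shEcad cells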;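 further: 0% = median of negative and 100% = median of positive control wells; the first replicate is given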
eIF4H inh: inhibitors of RNA binding by human eIF4H. Q15056. eIF4H fluorescence polarization binding assay. inhibition, % at 35 µM. 290,000 tested, 0.94% active. AID 2012;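 active means 50% or more with normal probe brightness, or confirmed in later tests; inconclusive means above 50% with abnormal brightness, or retests that disagree; inactive means below 50% or failed in later tests; about a fifth of its hits are not listed in these tables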;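 further: calls also rest on retests at 20 µM and on dose response follow-up; 0% = protein and probe with vehicle and 100% = probe without protein; strong numbers were not always called active; many hits fall short of the cut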
Yeast UUG start: alters start codon recognition fidelity in yeast | activity score, % at 18.7 µM | 350,000 tested, 0.13% active | S. cerevisiae UUG-firefly luciferase reporter, luminescence/redox ratio | AID 602363;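 active means replicate mean at a twofold rise or more, about +100% in these data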;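 further: firefly luciferase made from a UUG start codon reports start codon fidelity; reporter light over untreated wells divided by growth signal over untreated wells; some hits fall short of that in this replicate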
PABP polyA inh: PABP-poly(A) binding inhibition; 290,000 tested, 1% active; inhibition, % at 35 µM; P11940; PABP-poly(A) RNA binding, fluorescence polarization; AID 2014;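 active means 50% or more with normal probe brightness, or confirmed in later tests; inconclusive means above 50% with abnormal brightness, or retests that disagree; inactive means below 50% or failed in later tests; about a fifth of its hits are not listed in these tables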;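 further: calls also rest on retests at 20 µM and on dose response follow-up; controls were probe without protein and protein plus probe with vehicle; some compounds called inactive have numbers as strong as hits; many hits fall short of the cut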
MT1-MMP act inh RFP: also measured in MT1-MMP act inh; calls as there; RFP signal change, %; measured here: RFP expression control read;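 0 = vehicle wells; hits needed this value within 50% of zero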
The depositor's hits bear a star; i = inactive; ? = inconclusive; · = no result given; & = joins results of further samples.

compound	PABP polyA inh	MT1-MMP act inh	eIF4H inh	Yeast UUG start	HIV Env fusion	MT1-MMP act inh RFP	CSC inhib	Rce1 inhib
Cc1nn(Cc2ccccc2)c(C)c1C(=O)NCCN1C(=O)S/C(=C\c2ccccc2)C1=O	-3	-4	-8	-18	·	-2	-1	i
O=C(CN1C(=O)NC2(CCCC2)C1=O)OCc1ccccc1	·	-2	·	-14	8	4	-17	·
Cc1ccc(C(=O)N2C3=C(CCCC3)C(=O)NC23CCCCC3)cc1	?	-2	-8	·	12	3	4	i
COC(=O)c1ccccc1NCC(=O)c1ccc(OC)cc1	16	-7	-4	-14	14	-2	·	i
CC(O)c1nc2ccccc2n1CC(=O)N1CCN(c2ccccc2)CC1 (stereo not drawn)	25	1	4	-14	-10	6	4	i
CC(C)c1ccc(CN2CCC2(C)C(=O)Nc2cnc3ccccc3c2)cc1 (stereo not drawn)	·	-1	·	-2	8	-5	·	·
COc1ccc2[nH]c3c(=O)n(N)c(=O)[nH]c3c2c1	1	·	10	-30	-3	·	3	i
CNc1nc2c(c(=O)n(C)c(=O)n2C)n1Cc1ccccc1	5	7	-5	-23	69*	-13	-3	i
O=C(COc1ccccc1O)Nc1ccc(Cl)cc1	-4	2	-6	-10	-145	-10	35	i
OC(COc1ccc2cc(Br)ccc2c1)CN1CCCC1 (stereo not drawn)	4	·	-5	-5	·	·	·	i
COc1ccc(C(=O)OCC(=O)Nc2ccc(F)cc2F)cc1OC	-5	1	-3	-18	-6	-1	-1	i
Cc1cc(C)[n+](-c2ccc(Oc3ccccc3)c(S(=O)(=O)[O-])c2)[nH]1	-2	-1	10	·	-17	3	-2	i
C/C(=N/NC(=O)c1cccs1)c1c(C)[nH]n(-c2nc3ccccc3s2)c1=O	9	7	8	-23	-25	3	59	i
COC1OC(COC(=O)c2ccccc2)C(OC(=O)c2ccccc2)C1OC(=O)c1ccccc1 (stereo not drawn)	0	-4	-12	-1	9	-7	-7	i
Cc1c(N=Cc2cccnc2)c(=O)n(-c2ccccc2)n1C	3	0	-3	-14	·	1	0	i
CCCOc1ccc(N2C(=O)CC(N(Cc3ccc(OC)cc3)C(=S)Nc3ccccc3)C2=O)cc1 (stereo not drawn)	2	-2	-2	·	·	-5	19	i
CS(=O)(=O)c1ccc(Cl)c(NC(=O)COC(=O)CNC(=O)c2ccccc2)c1	9	0	7	·	7	6	-2	i
CCCCNC(=O)c1cccc2c(=O)c(C)c(-c3ccccc3)oc12	8	-5	-1	·	26	-6	12	i
CC/C(=N\NC(=O)c1ccc2c(c1)OCO2)c1ccccc1	7	-2	-3	-15	-30	3	-10	i
O=C(CSc1ccc(F)cc1)N1CCN(S(=O)(=O)c2ccccc2)CC1	15	-1	0	2	-12	-1	-7	i
CC(Sc1nnc(-c2ccccc2)c(-c2ccccc2)n1)C(=O)Nc1ncc(Cl)cc1Cl (stereo not drawn)	0	-1	2	·	-3	-3	-9	i
CC(=O)Nc1ccc(S(=O)(=O)N2CCN(CCN3CCOCC3)CC2)cc1Cl	2	-1	11	·	8	0	-22	i
CN(C(=O)COC(=O)c1ccc(Br)o1)c1c(N)n(Cc2ccccc2)c(=O)[nH]c1=O	·	4	·	·	-1	3	2	i
O=C(O)c1nn2cc(CCO)cnc2c1Cl	-5	3	3	-11	8	4	-15	i
CCOC(=O)c1c(C)[nH]c(C)c1S(=O)(=O)NCCc1cccs1	-6	1	-7	-5	-20	-5	-14	i

Three compounds from above, ordered by their value in MT1-MMP act inh RFP, high to low:
compound | MT1-MMP act inh RFP
CC(O)c1nc2ccccc2n1CC(=O)N1CCN(c2ccccc2)CC1 (stereo not drawn) | 6
Cc1cc(C)[n+](-c2ccc(Oc3ccccc3)c(S(=O)(=O)[O-])c2)[nH]1 | 3
CNc1nc2c(c(=O)n(C)c(=O)n2C)n1Cc1ccccc1 | -13

Following part:
compound	PABP polyA inh	MT1-MMP act inh	eIF4H inh	Yeast UUG start	HIV Env fusion	MT1-MMP act inh RFP	CSC inhib	Rce1 inhib
CCn1cc(C2=NOC(C(=O)Nc3cc(C)nn3-c3ccccc3)C2)c(C)n1 (stereo not drawn)	0	1	0	-14	-100	4	3	i
C/C(=N\NC(=O)c1ccccc1-n1cccc1)c1ccccn1	·	5	·	-13	4	-4	·	·
O=C(O)c1cc(N/N=C/C(Cl)=C/c2ccccc2)ccc1Cl	-7	-4	1	-54	-3	-1	-8	i
Cc1cccc(OCC(=O)Nc2ccc(NC(=O)c3ccco3)cc2)c1	0	4	-15	-16	-6	0	·	i
CCOC(=O)CCC(=O)N1CCNC(=O)C1	-20	0	-3	-11	-1	4	-11	i
Cc1ccc(S(=O)(=O)Nc2ccccc2F)cc1C(=O)NCc1ccco1	·	-3	·	9	10	1	·	·
CC(=O)N1c2ccc(S(=O)(=O)N3CCC(C(=O)Nc4ccccn4)CC3)cc2CC1C (stereo not drawn)	5	0	-14	0	-6	-18	-8	i
Cc1ccc(C(=O)Cc2cc3ccccc3oc2=O)c(C)c1	0	2	-7	·	-93	2	-13	i
CCCCn1c(N)c(N(CCC(C)C)C(=O)C2CC(=O)N(c3ccc(OC)cc3OC)C2)c(=O)[nH]c1=O (stereo not drawn)	·	-1	·	·	·	1	0	i
CCO[C@H]1OC(C(=O)N2CCOCC2)=C[C@@H](c2ccccc2)[C@@H]1CCCO	-5	-4	1	-11	-29	1	2	i
O=C(Nc1ccc2c(c1)OCO2)c1cc2n(n1)C(C(F)(F)F)CC(c1ccccc1)N2 (stereo not drawn)	2	-2	-8	-18	-16	-3	14	i
C=CCn1c(SCC(=O)Nc2cc(NC(C)=O)ccc2OC)nnc1-c1ccccn1	0	-1	-10	-17	16	-1	-8	i
COc1ccc(/C=N/n2c(=O)[nH]c3c([nH]c4ccc(C)cc43)c2=O)cc1CN1CCOCC1	4	7	0	·	·	1	·	i
COc1cccc(C(=O)OCC(=O)NCc2ccc3c(c2)OCO3)c1OC	·	1	·	-1	-10	2	4	·
COC1OCC(O)C(NC(=O)N(C)N=O)C1O (stereo not drawn)	·	-2	·	-26	6	-1	·	·
C[C@@]12CC[C@H]3OC(=O)C=C3C1CC[C@@]13CC(CCC12)[C@](CO)(O[C@H]1O[C@H](CO)[C@@H](O)[C@H](O)[C@H]1O)C3 (stereo partly drawn)	·	13	·	-6	·	8	-6	i
COc1cc(/C=C(\C#N)c2nn(CCO)c(N)c2C#N)cc(OC)c1OC	-6	9	-6	·	2	2	-8	i
COc1ccc(CC(=O)Nc2ccc(S(=O)(=O)NC(C)C)cc2)cc1	-2	1	2	-17	32	-7	-8	i
CCn1c2ccccc2c2cc(C#N)c(N)nc21	·	-5	·	-11	22	-6	·	i
CCC(Sc1nc2ccsc2c(=O)n1Cc1ccc(C(=O)O)cc1)C(=O)Nc1cc(Cl)ccc1C (stereo not drawn)	·	9	·	-5	22	0	·	·
COc1ccc(COC(=O)C2=C(C)NC(=O)NC2c2cccc(Br)c2)cc1 (stereo not drawn)	3	-1	-13	1	9	-12	10	i
C[C@H]1CN([C@@H](C)CO)C(=O)CCCn2nncc2CO[C@H]1CN(C)C(=O)Nc1ccccc1	·	-1	·	-18&-8	16	0	·	·
COc1ccc(-c2cc(C(=O)Nc3ccc(C(N)=O)cc3)c3ccccc3n2)cc1OC	-10	2	-5	·	9	-3	-1	i
CN(CC(=O)Nc1ccccc1Cl)C(=O)c1ccccc1SCC(=O)N1CCCC1	·	-1	·	-1	·	0	-13	i
COc1ccc(NC(=O)C2CCCN(S(=O)(=O)c3cnc[nH]3)C2)cc1 (stereo not drawn)	-2	-1	-2	-20	-35	0	-9	i
Cc1cc(Cl)ccc1OCCCC(=O)Nc1cc(S(=O)(=O)N2CCOCC2)ccc1N1CCOCC1	·	-1	·	-12	114*	-6	·	·
CCN(CC)S(=O)(=O)c1cc(NC(=O)C(C)N2CCN(c3ccccn3)CC2)ccc1C (stereo not drawn)	21	-3	-3	0	-9	-12	-1	i
Oc1ccc(/C=N/N2CCN(C3c4ccccc4-c4ccccc43)CC2)cc1	1	-2	-7	·	10	1	49	i
COc1ccc(-c2noc(CN(C)CCC3CCCCO3)n2)cc1 (stereo not drawn)	-3	-10	-5	-5	-4	-16	-13	i
COc1ccc(N(C)S(=O)(=O)c2cccc(C(=O)NCC(c3ccco3)N3CCCC3)c2)cc1 (stereo not drawn)	·	-4	·	-16	-26	-1	-10	i
Cc1ccc(NC(=O)CN(C)CC(=O)N(CC(C)C)c2c(N)n(CC(C)C)c(=O)[nH]c2=O)c(C)c1	·	-1	·	-20	·	3	-14	·
CCOC(=O)C1(Cc2cccc(OC)c2)CCN(CCO)CC1	-1	0	-14	1	5	-2	-6	i
Cc1onc(-c2c(F)cccc2Cl)c1C(N)=S	-7	2	-1	1	6	2	5	i
Cc1cc(C)cc(N2C(=O)CC(Cn3nc(C)cc3C)C2=O)c1 (stereo not drawn)	0	1	-4	-15	-10	0	-6	i
CC(=C\c1ccccc1)/C=C1/SC(=S)N(CCCC(=O)O)C1=O	7	1	6	-8	26	2	11	i
Cn1c(=O)cc(Cl)[nH]c1=O	5	2	-8	·	0	3	-2	i
CCOc1ccc(NC(=O)C(=S)NC2CCCCC2)cc1	-8	1	-5	·	-21	-7	-4	i
COc1cc(CCC(=O)Nc2ccc(C)c(S(=O)(=O)N(C)C)c2)cc(OC)c1OC	-1	-4	-10	11	·	-20	-17	i
O=C(Oc1ccc(=O)[nH]n1)c1ccccc1	·	-4	·	-10	-25	-3	·	·
O=C(c1c(Cl)cccc1Cl)N1CCN(c2ncccn2)CC1	-6	-4	-4	-8	-1	-2	8	i
CCOC(=O)C(=Cc1ccc(Br)cc1)C(=O)OCC	10	-4	0	-2	i	-5	39	i
CC(C)CCC[C@@H](C)[C@H]1CC[C@H]2[C@@H]3C(=O)C=C4C[C@@H](O)CC[C@]4(C)[C@H]3CC[C@]12C	·	-9	·	-8	6	-3	-4	i
S=C1NCCc2ccc(Cl)cc2C1c1ccccc1 (stereo not drawn)	-7	9	0	-18	7	4	6	·
O=C(Nc1nnc(S(=O)(=O)N2CCCCC2)s1)c1cccc(Br)c1	12	11	2	-7	·	-31	32	i
CC(Nc1nc(-c2ccccc2O)nc2ccccc12)c1ccccc1 (stereo not drawn)	-10	-10	-14	9	-36	-7	59	i
Cc1coc2c(C)c3oc(=O)c(CCC(=O)NCCCN4CCCC4=O)c(C)c3cc12	-7	1	-8	1	·	3	-8	·
CSc1cccc(NC(=S)N(CCCN2CCCC(C)C2)Cc2cccs2)c1 (stereo not drawn)	11	-3	0	·	-4	-3	24	i
Cc1cc(Cl)ccc1OCCCC(=O)N1CCOCC1	2	1	-6	8	-14	0	-10	i
CCN1CCN(CC(O)COC(c2ccccc2)c2ccccc2C)CC1 (stereo not drawn)	9	-1	12	-4	2	-1	13	i
CC(=O)Nc1ccc(/C=N/NS(=O)(=O)c2cc(C)ccc2C)cc1	6	11	-8	-12	-1	7	-9	i
COc1ccc(C2C(Oc3ccccc3)C(=O)N2c2cc(C)ccc2C)cc1OC (stereo not drawn)	-16	1	-9	-9	13	-3	11	i
O=C(NCc1cccs1)C1CCN(S(=O)(=O)N2CCCC2)CC1	-1	5	1	-14	·	1	-18	i
O=C(NC1CCCCC1)c1ccc(S(=O)(=O)c2ccccc2Cl)c([N+](=O)[O-])c1	-1	·	-5	·	·	·	10	i
